rRNA inh HTS: inhibits bacterial ribosomal RNA function over humanized ribosomes | hit rate 1.6% among 350,000 | GFP signal change (wild-type ribosome), % (no concentration beside the values) | E. coli WT GFP vs humanized-ribosome RFP mutants, fluorescence, 24 h; stronger effect = lower value; DMSO median 0, no signal -100;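 active = significant combined selectivity score with lowered wild-type GFP, culture density cut under 30%, mutant RFP and density less affected; inactive = any of these conditions unmet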; note: one replicate is shown; some compounds called inactive have numbers as strong as hits
B2AR ag: human beta-2 adrenergic receptor agonism by FAP; Am2.2-beta2AR cells, FAP receptor internalization, flow cytometry; reference of the scale not given here; response, % (test concentration not listed); hit rate 0.43% among 340,000; AID 504454;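 active = response above a set limit, near 3 SD of response in nonfluorescent compounds, cut at about 42% in these data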;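 note: stock transfer was 100 nL into about 11 µL; a reference agonist was the positive control; negative values mostly stem from fluorescent compounds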
Target sequence (P07550 whole entry, looked up): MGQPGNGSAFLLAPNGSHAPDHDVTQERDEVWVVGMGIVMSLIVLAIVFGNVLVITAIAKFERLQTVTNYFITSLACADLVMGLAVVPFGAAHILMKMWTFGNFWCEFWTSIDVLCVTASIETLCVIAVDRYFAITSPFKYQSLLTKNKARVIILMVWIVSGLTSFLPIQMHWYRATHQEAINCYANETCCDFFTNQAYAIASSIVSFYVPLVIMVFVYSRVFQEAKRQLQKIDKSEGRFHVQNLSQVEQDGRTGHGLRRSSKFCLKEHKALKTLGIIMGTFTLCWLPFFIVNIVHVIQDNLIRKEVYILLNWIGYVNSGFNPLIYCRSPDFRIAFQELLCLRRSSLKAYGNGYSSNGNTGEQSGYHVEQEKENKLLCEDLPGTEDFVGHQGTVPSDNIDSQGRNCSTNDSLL
LANA-H2B inh: blocks KSHV LANA binding to histone H2A/H2B; Q9QR71; cell-free LANA-H2A/H2B peptide, fluorescence polarization; inhibition, % (test concentration not listed); hit rate 0.6% among 320,000; AID 2629; in the data active = inhibition mostly above about 10%, no sharp cut-off; inactive = mostly below about 6.7%;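 note: stock transfer was 7.5 nL into about 10 µL; 0% = median of vehicle wells and 100% = median of positive control wells; one replicate is shown; the record names a cut of 25% in any replicate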
T cruzi repl: T. cruzi replication inhibition. T. cruzi beta-gal in NIH3T3, luminescence, 90 h. inhibition, % (test concentration not listed). hit rate 1.4% among 300,000;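 active = mean inhibition across valid replicates above about 55%, limit read from the data; inconclusive = mean below that limit but half or more replicates reach it; inactive = mean below it, under half of replicates reach it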;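 note: signal also drops with host cell toxicity which is not excluded here; 0% = plate median of DMSO wells and 100% = zero luminescence signal; higher percent means less beta-gal luminescence so fewer parasites; stock transfer was 50 nL into about 50 µL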
ALR H2O2 inh: inhibitors of human sulfhydryl oxidase ALR | P55789 | purified ALR, DTT oxidation, H2O2 HRP-luminol luminescence | inhibition, % (no concentration beside the values) | hit rate 3.8% among 290,000;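 active = mean and each replicate at 75% or more; inconclusive = only one of the two met; inactive = neither met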;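 note: stock transfer was 7.5 nL into about 7.5 µL; 0% = neutral wells and 100% = wells with inactivated enzyme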
Target sequence (P55789 whole entry, looked up): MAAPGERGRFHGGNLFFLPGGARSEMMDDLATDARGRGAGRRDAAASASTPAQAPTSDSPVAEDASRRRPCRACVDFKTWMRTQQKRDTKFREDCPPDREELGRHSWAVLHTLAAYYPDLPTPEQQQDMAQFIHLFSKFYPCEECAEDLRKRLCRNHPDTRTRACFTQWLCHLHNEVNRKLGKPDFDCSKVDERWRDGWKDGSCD
Bfl-1 A1 inh: inhibitors of the anti-apoptotic protein A1, read as caspase activation | MEF A1-2A-BIM cells, Caspase-Glo 3/7 luminescence, 3 h; percent of clofoctol response, vehicle zero | caspase activation, % (concentration not given with the values) | hit rate 0.066% among 330,000 | AID 2462;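 active = over half of replicate activation scores above 10%, or exactly half above 10 with the replicate mean above 10; inconclusive = replicate mean below 10 yet half the replicates above 10; inactive = over half of replicates below 10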;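 note: wells of about 30 µL received 50 nL stock; many hits fall short of the cut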
Beta apoptosis: beta cell apoptosis inhibition; INS-1E cytokine-induced death, ATP luminescence, 48 h; percent of positive-control rescue, neutral wells zero; hit rate 0.8% among 300,000; protection from apoptosis, % (test concentration not listed);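 active = all replicates at 75% or more, or half of them and the mean; inconclusive = half reach 75% but not the mean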;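 note: 0% = cytokine-treated negative control wells and 100% = positive control rescue; higher means more ATP so stronger rescue from cytokine killing; wells of about 40 µL received 100 nL stock; the first replicate is given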
Calb FLC: C. albicans growth modulation with fluconazole; hit rate 0.57% among 300,000; C. albicans CaCi-2 (fluconazole-resistant clinical isolate) + fluconazole, Alamar Blue growth, 48 h; growth inhibition, % (no concentration beside the values); AID 1979;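 active = most replicates above 75%; inconclusive = exactly half above 75%; inactive = most below 75%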;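 note: all wells also contain fluconazole at 8 µg/ml as a sub-toxic cotreatment; 0% = median of DMSO wells and 100% = median of geldanamycin control wells; wells of about 8 µL received 7.5 nL stock; the first replicate is given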
rRNA inh HTS OD600: further read-out of rRNA inh HTS, marked with its call; OD600 change, %; measured here: OD600 growth;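 optical density of the mix in the first replicate; 0 = DMSO median and -100 = no signal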
rRNA inh HTS RFP: also measured in rRNA inh HTS; calls as there; RFP signal change, %; measured here: RFP humanized mutant strains;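 first replicate; 0 = DMSO median and -100 = no signal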
Numbers without * were called inactive.

How did CC(c1cc2ccccc2s1)N(O)C(N)=O (configuration not stated) do in these assays?
LANA-H2B inh: 4.4; T cruzi repl: -20.2; ALR H2O2 inh: 61.5; Bfl-1 A1 inh: 2.4; Beta apoptosis: -5.1

How did Cc1cc(C)nc(NCc2ccc(Cl)cc2)n1 do in these assays?
rRNA inh HTS: 3.9; B2AR ag: -3.8; LANA-H2B inh: 7.6; T cruzi repl: -2.0; ALR H2O2 inh: 13.9; Bfl-1 A1 inh: 0.0; Beta apoptosis: -2.8; Calb FLC: -18.7; rRNA inh HTS OD600: 2.7; rRNA inh HTS RFP: 1.0

How did CCc1cc2c(=O)[nH]c(COC)nc2s1 do in these assays?
rRNA inh HTS: 5.6; B2AR ag: -6.5; LANA-H2B inh: 10.4; T cruzi repl: -2.6; ALR H2O2 inh: -5.3; Bfl-1 A1 inh: -1.1; Beta apoptosis: -8.2; Calb FLC: -10.6; rRNA inh HTS OD600: 2.0; rRNA inh HTS RFP: 9.0

What do the screens show for `C=CCn1cc(-c2cccc(C(F)(F)F)c2)cc(C#N)c1=O`?
rRNA inh HTS: 12.3; B2AR ag: -13.6; LANA-H2B inh: 1.8; T cruzi repl: -12.4; ALR H2O2 inh: -0.2; Bfl-1 A1 inh: 0.2; Beta apoptosis: -5.8; Calb FLC: -12.0; rRNA inh HTS OD600: 9.6; rRNA inh HTS RFP: -0.1

What do the screens show for `O=[N+]([O-])c1ccc(NC(=S)N2CCN(S(=O)(=O)c3ccccc3)CC2)cc1`?
rRNA inh HTS: -8.0; B2AR ag: 14.4; LANA-H2B inh: -1.9; ALR H2O2 inh: 1.2; Bfl-1 A1 inh: -0.5; Beta apoptosis: -3.3; Calb FLC: 2.2; rRNA inh HTS OD600: -14.1; rRNA inh HTS RFP: -1.9

What do the screens show for `Cc1cnc(C(=O)N2CCCC(N3CCN(c4cccc(C(F)(F)F)c4)CC3)C2)cn1` (configuration not stated)?
rRNA inh HTS: 0.0; B2AR ag: 6.9; LANA-H2B inh: 1.2; T cruzi repl: -2.2; ALR H2O2 inh: -0.8; Bfl-1 A1 inh: -0.4; Beta apoptosis: 2.1; Calb FLC: 12.5; rRNA inh HTS OD600: -3.8; rRNA inh HTS RFP: 2.5

Results for Cc1nc(=O)c(-c2ccccc2)c(C)n1CCCCCC(=O)O ?
B2AR ag: 1.0; LANA-H2B inh: -0.4; T cruzi repl: -10.0; ALR H2O2 inh: 8.3; Bfl-1 A1 inh: 0.8; Beta apoptosis: -4.7; Calb FLC: -6.5

Results for CCC(=O)Nc1cccc2c1C(=O)N(C)C2=O ?
B2AR ag: -4.8; LANA-H2B inh: -1.2; T cruzi repl: -2.1; ALR H2O2 inh: -2.3; Bfl-1 A1 inh: 0.3; Beta apoptosis: -0.9; Calb FLC: 1.4

What do the screens show for `CCOc1ccc2oc(C(=O)OCC(=O)NC3CCCC3)c(C)c2c1`?
B2AR ag: -14.0; LANA-H2B inh: 0.8; Bfl-1 A1 inh: 0.9; Beta apoptosis: -2.0

How did Cn1c(=O)c2c(nc(SCC(=O)c3cccs3)n2Cc2ccc(F)cc2)n(C)c1=O do in these assays?
B2AR ag: -6.8; LANA-H2B inh: 2.5; T cruzi repl: 5.4; ALR H2O2 inh: 6.6; Bfl-1 A1 inh: 0.6; Beta apoptosis: -4.0; Calb FLC: -17.4

How did CCOc1ccc(NC(=O)CN(C)C(=O)c2ccc(=O)[nH]c2)cc1OCC do in these assays?
rRNA inh HTS: 3.4; B2AR ag: 0.1; LANA-H2B inh: -1.7; T cruzi repl: -17.2; ALR H2O2 inh: -14.9; Bfl-1 A1 inh: -0.4; Beta apoptosis: -3.3; Calb FLC: -6.3; rRNA inh HTS OD600: 12.8; rRNA inh HTS RFP: 2.0

How did COc1cc(-c2nnc(NC(=O)CCS(=O)(=O)c3ccc(F)cc3)o2)cc(OC)c1OC do in these assays?
rRNA inh HTS: 6.1; B2AR ag: 11.3; LANA-H2B inh: -5.5; T cruzi repl: -4.6; ALR H2O2 inh: 22.6; Bfl-1 A1 inh: inconclusive; Calb FLC: 20.2; rRNA inh HTS OD600: 15.2; rRNA inh HTS RFP: -0.3

What do the screens show for `O=C(Cc1ccc([N+](=O)[O-])cc1)N1N=C2CCCCC2C1(O)C(F)(F)F` (configuration not stated)?
rRNA inh HTS: -3.7; B2AR ag: 0.9; LANA-H2B inh: 6.7; T cruzi repl: -12.4; Bfl-1 A1 inh: -0.2; Beta apoptosis: -3.9; Calb FLC: 7.8; rRNA inh HTS OD600: 4.9; rRNA inh HTS RFP: 1.4

How did Cc1ccc(NC(=S)NCC(C)CSc2ccc(Cl)cc2)cc1 (configuration not stated) do in these assays?
rRNA inh HTS: -27.0*; B2AR ag: 3.1; LANA-H2B inh: 1.2; T cruzi repl: 34.4; ALR H2O2 inh: 0.7; Bfl-1 A1 inh: 0.4; Beta apoptosis: 12.2; Calb FLC: -13.6; rRNA inh HTS OD600: -19.8*; rRNA inh HTS RFP: 6.4*

How did O=C(COc1ccc2c3c(c(=O)oc2c1)CCCC3)NCc1cccnc1 do in these assays?
rRNA inh HTS: -10.9; B2AR ag: -7.1; LANA-H2B inh: -1.7; T cruzi repl: 3.3; ALR H2O2 inh: -0.3; Bfl-1 A1 inh: -0.7; Beta apoptosis: -1.4; Calb FLC: 0.0; rRNA inh HTS OD600: -15.4; rRNA inh HTS RFP: -1.1

How did Cc1ccc(Nc2ncnc(N)n2)cc1 do in these assays?
rRNA inh HTS: 8.8; B2AR ag: 0.1; LANA-H2B inh: 5.1; T cruzi repl: -10.1; Bfl-1 A1 inh: 0.8; Beta apoptosis: -1.7; Calb FLC: 2.7; rRNA inh HTS OD600: 21.4; rRNA inh HTS RFP: 2.3

Results for CC12CCC(C(=O)Nc3ccccc3Br)(C/C1=N\O)C2(C)C (configuration not stated) ?
B2AR ag: -2.7; LANA-H2B inh: -8.2; T cruzi repl: -7.5; ALR H2O2 inh: -1.5; Bfl-1 A1 inh: 0.1; Beta apoptosis: 1.7; Calb FLC: 7.1

Results for COc1ccccc1N1CCN(C(c2cccs2)C(C)NS(=O)(=O)c2ccccc2)CC1 (configuration not stated) ?
rRNA inh HTS: -1.6; B2AR ag: 16.1; LANA-H2B inh: 3.5; T cruzi repl: 3.2; Bfl-1 A1 inh: inconclusive; Beta apoptosis: 14.0; Calb FLC: -3.6; rRNA inh HTS OD600: -6.0; rRNA inh HTS RFP: 1.1

What do the screens show for `CC1CCN(C(=O)c2cc(S(=O)(=O)N3CCCCC3)c[nH]2)CC1`?
rRNA inh HTS: 4.0; B2AR ag: 1.1; LANA-H2B inh: 6.0; T cruzi repl: 0.0; ALR H2O2 inh: 0.8; Bfl-1 A1 inh: 0.0; Beta apoptosis: -4.9; Calb FLC: -1.6; rRNA inh HTS OD600: 4.1; rRNA inh HTS RFP: -3.4

How did Cc1nnc(SCC(=O)Nc2ccc(F)cc2F)n(N)c1=O do in these assays?
rRNA inh HTS: 9.7; B2AR ag: 1.2; LANA-H2B inh: 0.9; T cruzi repl: -10.9; ALR H2O2 inh: -2.0; Bfl-1 A1 inh: 0.7; Beta apoptosis: -2.4; Calb FLC: -0.5; rRNA inh HTS OD600: 17.2; rRNA inh HTS RFP: -0.8

What do the screens show for `COc1cc(NC(=O)C2CCN(c3cnccn3)CC2)cc(OC)c1OC`?
rRNA inh HTS: -5.3; B2AR ag: -1.9; LANA-H2B inh: -11.1; T cruzi repl: -10.9; ALR H2O2 inh: -1.4; Bfl-1 A1 inh: 0.8; Beta apoptosis: -3.3; Calb FLC: -4.9; rRNA inh HTS OD600: -16.1; rRNA inh HTS RFP: 4.7

Results for CCCc1c(C(=O)N/N=C/c2ccncc2)nnn1-c1nonc1N ?
rRNA inh HTS: 5.5; B2AR ag: 1.9; T cruzi repl: -12.4; Calb FLC: -1.3; rRNA inh HTS OD600: 8.6; rRNA inh HTS RFP: -0.9

Results for Cc1cc(C)n2c(SCc3ccc(Br)cc3)nnc2n1 ?
rRNA inh HTS: 2.9; B2AR ag: -23.0; LANA-H2B inh: -3.8; T cruzi repl: 1.3; ALR H2O2 inh: -5.9; Bfl-1 A1 inh: -0.4; Beta apoptosis: -6.7; Calb FLC: 1.1; rRNA inh HTS OD600: 0.4; rRNA inh HTS RFP: -2.3

What do the screens show for `CC(=O)N1c2c(cc(Br)cc2S(=O)(=O)N2CCN(c3ccccc3F)CC2)CC1C` (configuration not stated)?
rRNA inh HTS: 1.6; B2AR ag: 5.3; LANA-H2B inh: 1.9; T cruzi repl: 16.5; ALR H2O2 inh: 1.2; Bfl-1 A1 inh: -0.3; Beta apoptosis: -2.7; Calb FLC: 7.1; rRNA inh HTS OD600: -9.5; rRNA inh HTS RFP: 11.0

How did COCCC(=O)NC12CC3CC(CC(C3)C1)C2 do in these assays?
B2AR ag: -0.1; LANA-H2B inh: 3.2; T cruzi repl: -22.0; ALR H2O2 inh: -2.4; Bfl-1 A1 inh: 1.4; Beta apoptosis: -2.2; Calb FLC: -16.0

How did CC(C)NS(=O)(=O)c1ccc(NC(=O)C(C)OC(=O)C2CCC2)cc1 (configuration not stated) do in these assays?
rRNA inh HTS: 1.7; B2AR ag: 3.0; LANA-H2B inh: -0.1; ALR H2O2 inh: 0.2; Bfl-1 A1 inh: -0.1; Beta apoptosis: -12.4; rRNA inh HTS OD600: -7.8; rRNA inh HTS RFP: -0.7

How did CCn1c(=N)n(CC(=O)c2ccc(OC)c(OC)c2)c2ccccc21 do in these assays?
rRNA inh HTS: 0.2; B2AR ag: 8.6; LANA-H2B inh: -1.7; T cruzi repl: -13.5; ALR H2O2 inh: -1.5; Bfl-1 A1 inh: 0.4; Beta apoptosis: -3.3; Calb FLC: -9.5; rRNA inh HTS OD600: -7.5; rRNA inh HTS RFP: -6.5

How did O=S(=O)(NCC1CCN(c2ccc(S(=O)(=O)N3CCOCC3)cc2)CC1)c1ccc(F)cc1 do in these assays?
rRNA inh HTS: -1.0; B2AR ag: 18.8; LANA-H2B inh: -3.3; T cruzi repl: 0.3; Bfl-1 A1 inh: -0.1; Beta apoptosis: 15.8; Calb FLC: 0.3; rRNA inh HTS OD600: -14.3; rRNA inh HTS RFP: 3.4

How did O=C(COC(=O)Cc1ccsc1)Nc1cccc(F)c1 do in these assays?
rRNA inh HTS: 10.2; B2AR ag: -0.7; LANA-H2B inh: 3.5; ALR H2O2 inh: -1.0; Bfl-1 A1 inh: 0.0; Beta apoptosis: -0.4; rRNA inh HTS OD600: 1.9; rRNA inh HTS RFP: -0.4

How did CC1=NOC(=O)/C1=C/c1ccc(O)c(Br)c1 do in these assays?
rRNA inh HTS: 8.2; B2AR ag: 25.5; LANA-H2B inh: 5.9; T cruzi repl: -6.2; Bfl-1 A1 inh: -0.1; Calb FLC: -5.9; rRNA inh HTS OD600: 15.8; rRNA inh HTS RFP: 2.0

Results for COc1ccc(C(=O)NC(=O)COC(=O)c2ccc(C)o2)cc1 ?
rRNA inh HTS: 6.5; B2AR ag: -3.9; LANA-H2B inh: -1.0; ALR H2O2 inh: 9.3; Bfl-1 A1 inh: -0.3; Beta apoptosis: 7.5; rRNA inh HTS OD600: 15.7; rRNA inh HTS RFP: -0.3

How did CCC1=NN(C(=O)C(=O)NCCc2ccccc2)C(O)(C(F)(F)F)C1 (configuration not stated) do in these assays?
B2AR ag: -7.0; LANA-H2B inh: -20.6; T cruzi repl: 1.5; ALR H2O2 inh: 5.3; Bfl-1 A1 inh: 0.4; Beta apoptosis: -2.1; Calb FLC: -7.1

Compound activity: PubChem, several laboratories

These rows are one share of the data; rates above refer to the full screens.
